rRNA inh HTS: reduced GFP signal of wild-type E. coli, primary screen, bacterial rRNA inhibitor project, GFP/RFP fluorescence, OD600, single point | E. coli WT GFP vs humanized-ribosome RFP mutants, 24 h; hits give low values; DMSO median 0, no signal -100 | GFP signal change (wild-type ribosome), % (concentration not given with the values) | AID 720706, 2013 | actives 1.6% (n = 350,000);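 active = significant combined selectivity score with lowered wild-type GFP, culture density cut under 30%, mutant RFP and density less affected; inactive = any of these conditions unmet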; note: one replicate is shown; some compounds called inactive have numbers as strong as hits
Calb FLC: C. albicans growth inhibition with fluconazole, primary screen, CaCi-2 strain, Alamar Blue fluorescence; C. albicans CaCi-2 (fluconazole-resistant clinical isolate) + fluconazole, 48 h; actives 0.57% (n = 300,000); growth inhibition, % (no concentration beside the values);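 active = most replicates above 75%; inconclusive = exactly half above 75%; inactive = most below 75%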;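 note: all wells also contain fluconazole at 8 µg/ml as a sub-toxic cotreatment; 0% = median of DMSO wells and 100% = median of geldanamycin control wells; wells of about 8 µL received 7.5 nL stock; the first replicate is given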
ALR inh: inhibitors of human ALR sulfhydryl oxidase, primary screen, biochemical, H2O2 detection, HRP-luminol luminescence, single point | purified ALR, DTT oxidation | inhibition, % (concentration not given with the values) | actives 3.8% (n = 290,000) | AID 485317, 2010;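 active = mean and each replicate at 75% or more; inconclusive = only one of the two met; inactive = neither met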;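 note: stock transfer was 7.5 nL into about 7.5 µL; 0% = neutral wells and 100% = wells with inactivated enzyme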
B2AR ag: beta2AR agonists driving receptor internalization, primary screen, cell-based, FAP fluorogen, flow cytometry; Am2.2-beta2AR cells; reference of the scale not given here; Beta-2 adrenergic receptor (Homo sapiens), P07550; response, % (concentration not given with the values); AID 504454, 2011; actives 0.43% (n = 340,000);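 active = response above a set limit, near 3 SD of response in nonfluorescent compounds, cut at about 42% in these data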;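 note: stock transfer was 100 nL into about 11 µL; a reference agonist was the positive control; negative values mostly stem from fluorescent compounds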
Bfl-1 A1 inh: caspase 3/7 activation in MEF A1-2A-BIM cells, primary screen, A1 inhibitor project, cell-based, luminescence, HTS. Caspase-Glo 3/7 luminescence, 3 h; percent of clofoctol response, vehicle zero. caspase activation, % (no concentration beside the values). actives 0.066% (n = 330,000);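 active = over half of replicate activation scores above 10%, or exactly half above 10 with the replicate mean above 10; inconclusive = replicate mean below 10 yet half the replicates above 10; inactive = over half of replicates below 10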;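 note: wells of about 30 µL received 50 nL stock; many hits fall short of the cut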
LANA-H2B inh: blockers of LANA interaction with H2A/H2B – biochemical, FP readout, HTS, primary screen. inhibition, % (concentration not given with the values). actives 0.6% (n = 320,000). AID 2629, 2010. cell-free LANA-H2A/H2B peptide, fluorescence polarization; in the data active = inhibition mostly above about 10%, no sharp cut-off; inactive = mostly below about 6.7%;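 note: stock transfer was 7.5 nL into about 10 µL; 0% = median of vehicle wells and 100% = median of positive control wells; one replicate is shown; the record names a cut of 25% in any replicate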
Target sequence (Q9QR71 whole entry, looked up): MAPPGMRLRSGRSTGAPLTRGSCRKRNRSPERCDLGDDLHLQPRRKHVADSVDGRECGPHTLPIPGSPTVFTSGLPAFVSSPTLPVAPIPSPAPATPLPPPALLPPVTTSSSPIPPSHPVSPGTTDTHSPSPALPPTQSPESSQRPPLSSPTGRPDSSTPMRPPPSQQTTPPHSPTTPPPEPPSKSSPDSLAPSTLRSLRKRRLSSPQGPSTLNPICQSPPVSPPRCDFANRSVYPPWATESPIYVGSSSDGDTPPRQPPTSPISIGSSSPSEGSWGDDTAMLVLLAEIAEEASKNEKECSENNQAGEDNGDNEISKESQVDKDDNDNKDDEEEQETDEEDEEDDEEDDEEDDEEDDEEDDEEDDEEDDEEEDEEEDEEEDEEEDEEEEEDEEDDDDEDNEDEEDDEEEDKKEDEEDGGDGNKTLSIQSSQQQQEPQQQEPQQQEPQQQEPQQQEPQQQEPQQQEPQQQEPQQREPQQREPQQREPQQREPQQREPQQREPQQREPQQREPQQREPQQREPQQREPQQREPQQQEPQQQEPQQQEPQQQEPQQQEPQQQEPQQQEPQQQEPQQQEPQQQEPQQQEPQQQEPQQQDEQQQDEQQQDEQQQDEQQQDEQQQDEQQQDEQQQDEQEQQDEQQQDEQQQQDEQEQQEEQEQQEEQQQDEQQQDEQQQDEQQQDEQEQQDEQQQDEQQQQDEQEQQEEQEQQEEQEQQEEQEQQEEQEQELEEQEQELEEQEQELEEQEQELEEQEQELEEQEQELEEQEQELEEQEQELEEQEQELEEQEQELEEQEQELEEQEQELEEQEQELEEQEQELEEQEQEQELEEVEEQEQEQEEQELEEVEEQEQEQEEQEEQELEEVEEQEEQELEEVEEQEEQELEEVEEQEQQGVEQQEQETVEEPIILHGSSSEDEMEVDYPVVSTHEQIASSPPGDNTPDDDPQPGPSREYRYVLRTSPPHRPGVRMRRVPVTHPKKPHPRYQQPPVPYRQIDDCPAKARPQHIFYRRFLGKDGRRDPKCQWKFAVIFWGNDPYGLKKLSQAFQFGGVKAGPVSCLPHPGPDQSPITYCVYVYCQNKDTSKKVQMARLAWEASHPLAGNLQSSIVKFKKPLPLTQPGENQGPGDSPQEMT
Beta apoptosis: inhibitors of cytokine-induced beta cell apoptosis, primary screen, luminescence. INS-1E cytokine-induced death, ATP luminescence, 48 h; percent of positive-control rescue, neutral wells zero. protection from apoptosis, % (test concentration not listed). actives 0.8% (n = 300,000);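 active = all replicates at 75% or more, or half of them and the mean; inconclusive = half reach 75% but not the mean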;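 note: 0% = cytokine-treated negative control wells and 100% = positive control rescue; higher means more ATP so stronger rescue from cytokine killing; wells of about 40 µL received 100 nL stock; the first replicate is given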
T cruzi repl: inhibitors of intracellular T. cruzi growth, primary screen, luminescence, NIH3T3 host cells; T. cruzi beta-gal in NIH3T3, 90 h; inhibition, % (no concentration beside the values); actives 1.4% (n = 300,000); AID 1885, 2009;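 active = mean inhibition across valid replicates above about 55%, limit read from the data; inconclusive = mean below that limit but half or more replicates reach it; inactive = mean below it, under half of replicates reach it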;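 note: signal also drops with host cell toxicity which is not excluded here; 0% = plate median of DMSO wells and 100% = zero luminescence signal; higher percent means less beta-gal luminescence so fewer parasites; stock transfer was 50 nL into about 50 µL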
rRNA inh HTS OD600: recorded beside rRNA inh HTS, whose call it bears; OD600 change, %; measured here: OD600 growth;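 optical density of the mix in the first replicate; 0 = DMSO median and -100 = no signal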
rRNA inh HTS RFP: second read-out of rRNA inh HTS, no call of its own (marks repeat the call); RFP signal change, %; measured here: RFP humanized mutant strains;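 first replicate; 0 = DMSO median and -100 = no signal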
Numbers without * were called inactive; ? = inconclusive; · = not tested or not shown.

SMILES	rRNA inh HTS	rRNA inh HTS OD600	rRNA inh HTS RFP	Calb FLC	ALR inh	B2AR ag	Bfl-1 A1 inh	LANA-H2B inh	Beta apoptosis	T cruzi repl
COc1cc2c(cc1NC(=O)c1cc(-c3ccncc3)nc3ccc(C)cc13)oc1ccccc12	·	·	·	22	-1	2	0.2	7.7	50	29
COC(=O)C1C(=O)c2c([nH]c(C(=O)OC3CCCCC3)c2C)CC1C (stereo not drawn)	9	-9	-3.7	-2	-8	2	0.7	3.5	4	-8
C/C(=N/N1CCN(Cc2ccccc2)CC1)c1ccc(Br)cc1	2	12	-2.6	-2	-1	13	0.5	-2.8	-1	-6
O=[N+]([O-])c1ccc(Cl)c(NC2=NCCCCC2)c1	-1	0	-1.2	1	-4	2	0.4	3.3	-5	-5
CCCCOC(=O)Nc1ccccc1C(=O)N1CCCC1	·	·	·	-1	4	6	0.4	-2.4	-11	-27
CC1CN(C(=O)CCC(=O)NCCc2ccccc2)c2ccccc2O1 (stereo not drawn)	0	-2	-2.2	-13	0	-2	0.3	-9.8	0	6
COc1ccc(F)cc1C(=O)C1CCCN(C(=O)c2ocnc2C)C1 (stereo not drawn)	-5	1	-1.8	14	15	-3	-0.3	-2.8	-4	-8
CCOc1ccc(C2NC(=O)C(C#N)=C(S)N2c2ccc(OC)cc2)cc1OC (stereo not drawn)	2	7	1.0	1	97*	-1	-0.3	-9.7	-6	-11
CCN1CCN(c2sc(S(C)(=O)=O)nc2S(=O)(=O)c2ccc(Cl)cc2)CC1	·	·	·	13	5	-6	0.3	-0.8	-10	0
O=C(c1ccccc1)c1ccc(-n2ccnc2)c([N+](=O)[O-])c1	-2	-3	-2.6	9	7	-6	0.1	-2.3	-2	19
CN(CCc1ccccn1)Cc1ccc(Cl)c(Cl)c1	5	4	1.6	-4	-1	2	-0.3	16	2	62*
CCCCn1c(N)c(N(CCOC)C(=O)c2ccc(Cl)c(S(=O)(=O)N3CCCC3)c2)c(=O)[nH]c1=O	-1	6	3.5	-4	4	4	-0.1	-0.4	·	0
O=C(CNC1CCCCC1)NN=C(c1ccccc1)c1ccccc1	-15	-27	34	4	-1	0	1.1	0.1	2	14
COC(=O)c1[nH]c2c(c1C)C(=O)CC(c1ccc(C)cc1)C2 (stereo not drawn)	·	·	·	7	-14	-5	-0.8	5.6	2	3
O=C(O)COc1c(F)c(F)c(C(F)(F)F)c(F)c1F	·	·	·	0	-6	6	0.0	5.2	-2	-8
Cc1ccc(C)c(-n2cc(CN3CCNC(=O)CC3)c(-c3ccccc3)n2)c1	-11	-11	2.2	20	-21	-4	0.2	4.6	-1	9
O=C(O)CCCC(=O)Nc1ccc(OCc2nc3ccccc3s2)cc1	-2	-1	-2.3	8	6	-6	0.3	1.6	-2	-6
CCOc1ccc(C2CC(=O)n3nc(C45CC6CC(CC(C6)C4)C5)nc3S2)cc1OC (stereo not drawn)	·	·	·	-72	1	-8	0.2	0.2	-4	1
COc1ccc(C)cc1NC(=O)C(OC(=O)CNC(=O)c1ccc(Br)cc1)c1ccccc1 (stereo not drawn)	5	17	7.7	4	1	8	1.0	9.6	-6	8
COc1ccc(-c2nnc(NC(=O)CS(=O)(=O)c3ccc(F)cc3)o2)cc1	-6	-8	-2.4	·	39	-3	?	-5.2	-7	-13

An excerpt of these results, with each value named:
CC1CN(C(=O)CCC(=O)NCCc2ccccc2)c2ccccc2O1 (stereo not drawn)
  rRNA inh HTS: 0	rRNA inh HTS OD600: -2	rRNA inh HTS RFP: -2.2	Calb FLC: -13	ALR inh: 0	B2AR ag: -2	Bfl-1 A1 inh: 0.3	LANA-H2B inh: -9.8	Beta apoptosis: 0	T cruzi repl: 6

COc1ccc(F)cc1C(=O)C1CCCN(C(=O)c2ocnc2C)C1 (stereo not drawn)
  rRNA inh HTS: -5	rRNA inh HTS OD600: 1	rRNA inh HTS RFP: -1.8	Calb FLC: 14	ALR inh: 15	B2AR ag: -3	Bfl-1 A1 inh: -0.3	LANA-H2B inh: -2.8	Beta apoptosis: -4	T cruzi repl: -8

CCOc1ccc(C2NC(=O)C(C#N)=C(S)N2c2ccc(OC)cc2)cc1OC (stereo not drawn)
  rRNA inh HTS: 2	rRNA inh HTS OD600: 7	rRNA inh HTS RFP: 1.0	Calb FLC: 1	ALR inh: 97*	B2AR ag: -1	Bfl-1 A1 inh: -0.3	LANA-H2B inh: -9.7	Beta apoptosis: -6	T cruzi repl: -11

(list continues)
SMILES	rRNA inh HTS	rRNA inh HTS OD600	rRNA inh HTS RFP	Calb FLC	ALR inh	B2AR ag	Bfl-1 A1 inh	LANA-H2B inh	Beta apoptosis	T cruzi repl
CC1(C)CC(=O)c2cn3ncnc3nc2C1	22	12	-5.7	-13	-17	-1	0.5	-0.2	0	-7
CCc1ccc2oc(C(=O)N3CCN(c4ccc(OC)cc4)CC3)cc(=O)c2c1	2	16	1.1	16	0	-5	0.9	2.0	-4	6
O=C1CCCc2c1cc(C(=O)Nc1ccc(Br)cn1)c(=O)n2-c1ccccc1	·	·	·	59	-34	-33	-1.7	1.9	1	14
CC1CCN(Cc2nnnn2CCCC(=O)NCC(C)(C)N2CCOCC2)CC1	3	1	1.5	7	5	2	-0.8	-0.5	5	24
O=C1Oc2ccccc2C(=O)/C1=C\N1CCN(c2ccccc2)CC1	-33*	-13*	0.0*	-3	97*	-7	-0.4	4.5	-10	-7
O=C(Nc1ccc(Cl)cc1F)c1cccc2ccccc12	7	1	-1.6	-7	·	-2	-1.0	-1.6	4	-19
CCOc1ccc(S(=O)(=O)/N=C(/Nc2ccc(OC)cc2)c2ccccc2)cc1	0	-24	-0.3	-17	-9	-3	0.9	-0.7	3	6
C=CCc1cccc(/C=N/n2cnnc2)c1O	·	·	·	-3	23	-7	0.2	6.8	-1	3
COc1ccc(C(=O)C2CCCN(Cc3ccc(NC(C)=O)cc3)C2)cc1OC (stereo not drawn)	7	9	-0.9	-1	·	2	0.4	-6.5	-4	1
CCOC(=O)c1oc2cc(O)ccc2c(=O)c1-c1ccccc1OC	·	·	·	6	-13	7	0.6	4.7	1	-9
CC(=O)NNC(=O)c1[nH]c2ccc(Br)cc2c1-c1ccccc1	-37	-46	-18	5	97*	5	1.7	0.1	1	2
Cc1noc(C)c1COc1ccc(C(=O)Nc2ccccn2)cc1	-2	-5	-2.8	-1	-2	-8	0.4	-2.1	·	-10
O=C(Nn1cnnc1)c1cc(Br)ccc1Cl	0	7	-0.3	-4	2	1	-1.3	3.3	-6	-3
O=C(CSc1nc(-c2ccc(F)cc2)nc2c1Cc1ccccc1O2)Nc1cccc(C(=O)O)c1	-12	-8	-2.6	32	·	-3	·	·	·	26
COC(=O)/C=C/c1ccccc1S(=O)(=O)N(Cc1ccccc1)Cc1ccco1	·	·	·	-6	11	-6	0.8	3.6	1	-11
Cn1nc(-c2ccc(Cl)cc2)c2cc(C(=O)N3CCN(c4ccccn4)CC3)sc21	·	·	·	1	-29	-13	0.3	0.9	44	30
CC1CCN(C(NC(=O)c2ccco2)C(=O)c2ccccc2)CC1 (stereo not drawn)	·	·	·	-4	-10	0	0.5	-0.7	·	0
O=C(NC(=S)Nc1ccc(C(F)(F)F)cc1)c1csnn1	19	14	5.9	-4	6	1	0.8	-0.9	4	36
CCN1CCCC1CNC(=O)CSc1cc(=O)n(CC)c2ccccc12 (stereo not drawn)	·	·	·	16	-5	12	0.3	-0.1	1	-28
O=C(C1CCN(C2CCN(Cc3cccc4c3OCO4)CC2)CC1)N1CCOCC1	-20	-41	-8.6	5	-7	-2	-0.3	-1.8	-6	-7
O=C(OCC(=O)N(CCc1ccccc1)Cc1ccccc1)c1ccccc1[N+](=O)[O-]	-25	-41	-3.9	-2	47	2	-0.7	-4.8	-2	-5
COc1cc(-c2n[nH]c(=O)o2)cc(OC)c1OC	·	·	·	1	0	0	1.0	1.1	-21	13
CCOC(=O)C1(Cc2ccccc2C)CCCN(C(=O)c2sccc2C)C1 (stereo not drawn)	-11	-15	-1.4	3	3	19	-0.5	0.5	1	14
COc1cc(CNc2ncc(-c3ccc(Br)cc3)n2C)cc(OC)c1O	2	4	-1.8	16	86*	-5	1.1	0.3	-9	3
CCCOc1ccc(C(=O)O/N=C(\CC)c2ccc(C)cc2)cc1	·	·	·	5	-3	7	0.7	5.3	0	-6
Cc1ccc(CNS(=O)(=O)c2ccc3c(c2)CCN3C(=O)C2CCC2)cc1	5	6	-0.9	-29	-1	-4	1.2	0.0	-1	-14
COC(=O)C(CO)NC(=O)C1CCCN1C(=O)CNC(=O)OCc1ccccc1 (stereo not drawn)	2	10	0.8	6	-8	-4	-0.2	-3.3	2	10
CCc1ccc(NC(=S)NC2CC3CCCC(C2)N3Cc2ccccc2)cc1 (stereo not drawn)	-25	-50	31	-25	-2	10	0.5	-2.9	10	16
CCCCC(NC(C)=O)c1nc2ccccc2n1CCCC (stereo not drawn)	·	·	·	37	-6	6	1.2	0.2	3	-4
CS(=O)(=O)N1CCN(c2ccc([N+](=O)[O-])c3cccnc23)CC1	3	4	4.4	0	-27	-8	0.2	2.8	-4	6
CC(=O)COc1ccc2c3c(c(=O)oc2c1C)CCCCC3	·	·	·	56	3	-3	0.6	-0.3	20	-2
O=C(Nc1ccc(Cl)cc1C(=O)Nc1ccncc1)c1ccco1	·	·	·	-4	2	-1	-0.2	3.5	-2	21
Cc1c(OCC(=O)NCCN2CCOCC2)ccc2c1oc(=O)c1ccccc12	-8	-15	-0.8	-3	-2	10	2.4	-1.3	2	16
CC(OC(=O)CC1CCCCC1)C(=O)Nc1ccc(S(N)(=O)=O)cc1 (stereo not drawn)	-3	-3	-4.1	3	-4	-4	0.1	-3.5	1	-14
CCN(CC(=O)NCc1ccc(F)cc1)C(=O)COc1ccc2ccccc2c1	·	·	·	3	-23	-4	0.2	-0.6	3	3

A portion of the library, so the mix of outcomes need not match the whole.
